Beta2AR agonist: agonists of human beta-2 adrenergic receptor inducing internalization | Am2.2-beta2AR cells, FAP receptor internalization, flow cytometry; reference of the scale not given here | 0.43% of 340,000 active | AID 504454 | response, % (no concentration beside the values) | P07550;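 active = response above a set limit, near 3 SD of response in nonfluorescent compounds, cut at about 42% in these data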;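 note: stock transfer was 100 nL into about 11 µL; a reference agonist was the positive control; negative values mostly stem from fluorescent compounds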
Target sequence (P07550 whole entry, looked up): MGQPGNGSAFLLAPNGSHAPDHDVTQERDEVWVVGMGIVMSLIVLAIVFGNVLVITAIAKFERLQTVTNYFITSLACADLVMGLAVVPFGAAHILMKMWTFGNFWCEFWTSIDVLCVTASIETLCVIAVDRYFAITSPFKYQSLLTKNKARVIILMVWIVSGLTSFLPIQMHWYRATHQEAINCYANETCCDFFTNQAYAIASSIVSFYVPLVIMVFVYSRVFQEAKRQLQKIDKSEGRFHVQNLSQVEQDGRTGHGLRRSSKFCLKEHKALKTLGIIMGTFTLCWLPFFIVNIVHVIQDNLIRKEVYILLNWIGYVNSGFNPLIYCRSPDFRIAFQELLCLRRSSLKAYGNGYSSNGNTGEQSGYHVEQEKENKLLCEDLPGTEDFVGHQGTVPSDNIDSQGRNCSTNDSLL
LANA-H2B inh: blocks KSHV LANA binding to histone H2A/H2B. cell-free LANA-H2A/H2B peptide, fluorescence polarization. inhibition, % (test concentration not listed). 0.6% of 320,000 active; in the data active = inhibition mostly above about 10%, no sharp cut-off; inactive = mostly below about 6.7%;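 note: stock transfer was 7.5 nL into about 10 µL; 0% = median of vehicle wells and 100% = median of positive control wells; one replicate is shown; the record names a cut of 25% in any replicate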
Ecoli growth: inhibitors of Escherichia coli growth. 0.21% of 330,000 active. OD600, 23 h; active compounds read low. OD600 absorbance (test concentration not listed);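 active = OD600 absorbance below the run mean of sample wells minus 3.6 SD, in any replicate, cut at about 0.56 in these data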;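 note: stock transfer was 300 nL into about 60 µL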
UCH37 inh: blocks the human deubiquitinase UCH37. purified proteasome/UCH37, Ub-AMC cleavage fluorescence. AID 588478. 0.33% of 330,000 active. inhibition, % (no concentration beside the values). Q9Y5K5;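 active = mean of two replicates above 20%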;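 note: 0% = compound-free wells with enzyme and 100% = wells lacking proteasome; stock transfer was 100 nL into about 20 µL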
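Material: human UCH37 enzyme supplied as purified proteasome complex / Amount: 0.15 nM proteasome as dispensed / Buffer or medium: pH 7.4 Tris-HCl (50 mM) with ovalbumin, ATP-MgCl2, DTT / Times: preincubation 30 min, reaction 25 min, room temperature / Technique: AMC fluorescence from Ub-AMC cleavage, excitation 355 nm, emission 460 nm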
HNF4A DNA FP: change in binding of human HNF4 alpha to DNA. 0.3% of 360,000 active. activity change, % at 10 µM. HNF4a-FITC DNA binding, fluorescence polarization, 1 h. P41235. AID 1224865; in the data active = activity change above about 30%, passing the limit was not always enough;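 note: controls were the assay level and a saturating level of protein; the project sought stronger binding though the title names inhibitors; some compounds called inactive have numbers as strong as hits; positive values seem to mean higher polarization but the record does not say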
Target sequence (P41235 whole entry, looked up): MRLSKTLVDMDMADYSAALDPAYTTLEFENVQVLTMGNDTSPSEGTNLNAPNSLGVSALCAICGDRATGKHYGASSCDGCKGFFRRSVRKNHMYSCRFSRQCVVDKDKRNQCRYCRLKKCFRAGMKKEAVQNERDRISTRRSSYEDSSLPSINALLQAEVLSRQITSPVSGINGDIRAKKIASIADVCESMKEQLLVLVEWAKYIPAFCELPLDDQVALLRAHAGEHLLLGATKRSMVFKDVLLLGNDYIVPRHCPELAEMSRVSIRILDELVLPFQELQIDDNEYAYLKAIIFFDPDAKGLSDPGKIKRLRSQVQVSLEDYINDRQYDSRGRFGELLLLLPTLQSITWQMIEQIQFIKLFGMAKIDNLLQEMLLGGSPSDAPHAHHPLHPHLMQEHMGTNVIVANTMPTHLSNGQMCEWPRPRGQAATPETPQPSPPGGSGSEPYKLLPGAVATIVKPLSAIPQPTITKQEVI
Vif TR-FRET: HIV-1 Vif–A3G interaction blockers – biochemical, TR-FRET, GST-Vif 1-94, biotin-A3G peptide, dose response retest, primary screen (AID 1117319) | TR-FRET GST-Vif / biotin-A3G peptide binding; higher % means a stronger effect; test concentration not given here; strong numbers were not always called active | inhibition, %, or IC50 in µM where a hit was titrated | 0.57% of 260,000 active;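 active = above the screen mean plus three standard deviations and confirmed in dose response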;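 note: Vif residues 1-94 fused to GST binding biotinylated APOBEC3G peptide 110-148; 0% = full assay without inhibitor and 100% = GST in place of GST-Vif; retest series ran down from 100 µM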
A1 inh: inhibitors of the anti-apoptotic protein A1, read as caspase activation. MEF A1-2A-BIM cells, Caspase-Glo 3/7 luminescence, 3 h; percent of clofoctol response, vehicle zero. caspase activation, % (concentration not given with the values). 0.066% of 330,000 active;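 active = over half of replicate activation scores above 10%, or exactly half above 10 with the replicate mean above 10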;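 note: wells of about 30 µL received 50 nL stock; many hits fall short of the cut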
The depositor's hits bear a star; · = no result given; & = joins results of further samples. Not a hit list; about 2.1% have a hit in one of these screens.

SMILES	Beta2AR agonist	LANA-H2B inh	Ecoli growth	UCH37 inh	HNF4A DNA FP	Vif TR-FRET	A1 inh
NC(=O)c1ccc(NC(=O)COC(=O)c2c3c(nc4ccccc24)/C(=C\c2ccc4c(c2)OCO4)CCC3)cc1	21	·	0.67	-259	-92	9%	·
COc1ccc2[nH]c3c(c2c1)CCN1C(=O)C(CC(=O)NCc2ccc(OC)c(OC)c2)C[C@H](C(=O)N(C(C)C)C(C)C)[C@@]31C (stereo partly drawn)	-6	·	0.7	1.1	-3.8	·	·
CC(=O)Nc1ccc(NC(=O)CSc2nnc(-c3ccc4c(c3)OCO4)o2)cc1	0	1.8	0.66	4.1	0.6	·	-0.8
C=C(C)CN1CCN(c2c(CCC#N)c(C)c(C#N)c3nc4ccccc4n23)CC1	-5	2.0	0.82	-9.3	22	-6%&-2%	-0.4
Cc1cc(C(=O)CN2C(=O)CN(C)C2=O)c(C)n1-c1cccc(S(=O)(=O)N2CCOCC2)c1	36	0.8	0.64	0.9	0.6	15%	-0.4
CCOc1ccc(Nc2cc(C)nc3c(C)cccc23)cc1	-5	-0.2	0.6	4.9	-1.6	9%	0.2
N#Cc1cccc(NC(=O)Cn2cnc(S(=O)(=O)N3CCCC3)c2)c1	3	2.2	0.66	-0.5	-4.0	-3%	0.4
CS(=O)(=O)Nc1ccc(C2=NN(S(C)(=O)=O)C(c3cccs3)C2)cc1 (stereo not drawn)	1	0.3	·	·	21	2%	-1.2
Cc1cc(=O)oc2c(C)c(OCC(=O)c3ccccc3)ccc12	-11	-6.0	0.67	1.0	0.0	·	-0.9
O=C(c1ccc(Cl)cc1)C(CN1CCCC1)c1ccccc1 (stereo not drawn)	34	3.8	0.6	5.3	2.7	2%	0.9
CCn1c(CNC(=O)c2ccccc2F)nnc1SCC(=O)NC1CCCCC1C (stereo not drawn)	4	2.0	0.67	0.6	2.0	7%	-0.1
C/C(N)=C(/C#N)C(=O)COC(=O)c1ccncc1	2	-3.5	0.74	4.9	4.4	5%	0.1
CCCC(=O)Nc1ccc(-c2nc3ncccc3o2)cc1	28	-0.5	0.7	-346	1.3	·	-0.1
CCOC(=O)C1C2C=CC(CC2)N1c1ccccc1 (stereo not drawn)	1	0.9	0.71	3.3	0.1	·	0.2
CC(NC(=S)NCCc1ccccc1)C(c1cccs1)N1CCN(Cc2ccccc2)CC1 (stereo not drawn)	9	2.6	0.71	0.0	-4.4	-3%	·
CCC(C)N(C(=O)COc1ccccc1C#N)C1CCS(=O)(=O)C1 (stereo not drawn)	-8	3.6	0.66	5.1	-1.9	-7%	0.5
COc1cccc(NC(=S)/C(=C(\[O-])c2ccc([N+](=O)[O-])cc2)[n+]2ccccc2)c1	6	2.8	0.69	6.6	-5.0	4%	1.5
O=C(Cc1ccc(S(=O)(=O)N2CCOCC2)s1)N1CCN(S(=O)(=O)c2ccc(Cl)cc2)CC1	0	13	0.66	-3.0	0.7	4%	0.5
CCCC(=O)Nc1ccc(C(=O)n2nnc3ccccc32)cc1	0	-1.8	0.69	1.7	0.6	3%	0.6
Cc1ccc(Cn2ccc(=O)c(OCc3ccccc3)c2C)cc1	10	-4.1	0.7	4.1	-1.7	-1%	-0.2
Cc1ccc2nc(-c3ccccc3)cc(C(=O)N(C)CC(=O)Nc3ccccc3Br)c2c1	12	5.8	0.67	-4.8	1.8	3%	0.1
CCOC(=O)N1CCN(c2nc(C(F)(F)F)nc3c(C)cc(C)cc23)CC1	-7	4.1	0.7	-3.2	0.8	5%	-0.8
CCOC(=O)Nc1nnc(-c2ccc(OC)cc2)s1	6	1.6	0.7	-14	-1.4	-5%	-2.6
COc1ccc(OC)c(NC(=O)CSc2nc3n[nH]c(C)c3c(=N)n2-c2cccc(Cl)c2C)c1	-2	-0.8	0.71	1.2	-3.8	·	-0.6
COc1ccc(CN(C)C(=O)c2cc(S(=O)(=O)Nc3ccccc3F)ccc2C)c(OC)c1	4	-1.3	0.65	1.5	-0.2	-5%	-0.8

The closing five records of the section before come first, to join the parts:
SMILES	Beta2AR agonist	LANA-H2B inh	Ecoli growth	UCH37 inh	HNF4A DNA FP	Vif TR-FRET	A1 inh
Cc1ccc2nc(-c3ccccc3)cc(C(=O)N(C)CC(=O)Nc3ccccc3Br)c2c1	12	5.8	0.67	-4.8	1.8	3%	0.1
CCOC(=O)N1CCN(c2nc(C(F)(F)F)nc3c(C)cc(C)cc23)CC1	-7	4.1	0.7	-3.2	0.8	5%	-0.8
CCOC(=O)Nc1nnc(-c2ccc(OC)cc2)s1	6	1.6	0.7	-14	-1.4	-5%	-2.6
COc1ccc(OC)c(NC(=O)CSc2nc3n[nH]c(C)c3c(=N)n2-c2cccc(Cl)c2C)c1	-2	-0.8	0.71	1.2	-3.8	·	-0.6
COc1ccc(CN(C)C(=O)c2cc(S(=O)(=O)Nc3ccccc3F)ccc2C)c(OC)c1	4	-1.3	0.65	1.5	-0.2	-5%	-0.8
CCC(C)NC(=O)/C(=C/c1ccco1)c1ccccc1 (stereo not drawn)	4	2.9	·	0.4	2.0	9%	0.5
COc1ccc(NC(=O)Nc2cccc3c2O[C@H](CN(C)C(=O)Nc2ccccc2)[C@@H](C)CN([C@H](C)CO)C3=O)cc1	9	-0.6	0.76	-3.1	5.1	·	-0.1
COc1ccc(CNC(=O)CNC(=O)[C@@H]2Cc3ccccc3CN2)cc1	1	-1.7	0.71	1.4	1.3	1%	0.5
N#CCCN(Cc1ccncc1)C(=S)NC1CC2C=CC1C2 (stereo not drawn)	0	-3.8	0.63	3.8	-0.6	-8%	-0.2
Cc1ccc(NC(=O)C2CCCN(c3cnccn3)C2)c(C)c1 (stereo not drawn)	-7	-1.1	0.72	-9.1	-1.7	·	0.4
COC(=O)NCC(c1cccnc1)N1CCN(c2ccccc2)CC1 (stereo not drawn)	8	1.5	0.72	0.9	-2.1	-1%	0.2
CNS(=O)(=O)c1cccc(C(=O)OCC(=O)Nc2ccc(N3CCCCC3)cc2)c1	-14	1.7	0.66	4.9	-4.6	1%	0.9
CCOCCCNC(=S)NCCCNc1nc2cc3c(cc2cc1C#N)OCO3	6	-2.3	0.68	-209	-10	13%	-0.3
CCN(CC(=O)NCc1cccs1)S(=O)(=O)c1c(F)cccc1F	1	-0.2	0.7	-2.0	-2.6	2%	0.7
CN1CCN(c2ccccc2NC(=O)Cn2ncc3c([nH]c4ccccc43)c2=O)CC1	2	-0.5	0.67	6.7	-0.7	·	0.8
CCc1ccc(NCc2ccc(OC)c(Cn3ccnc3)c2)cc1	-9	-0.6	0.64	0.6	-4.0	7%	0.1
CCOC(=O)c1cc(C(=O)OCC)cc(-n2cc(O)c(C(=O)OCC)n2)c1	9	0.0	0.69	6.9	-1.5	-2%	-0.6
CC1=CC(C)(C)NC(=O)N1c1ccc(C)cc1	-8	1.6	0.71	2.8	-2.7	·	0.8
C=CCNC(=S)Nc1cccc2[nH]ncc12	7	-3.3	0.71	-1.1	1.5	23%	-0.1
COc1ccnc(Oc2ccc(F)cc2)c1C(=O)N/C=N/OCc1c(Cl)cccc1Cl	13	0.3	0.72	-0.2	-1.2	-9%	0.4
N=c1sccn1CC(=O)Nc1ccc([N+](=O)[O-])cc1Cl	3	-2.0	0.68	5.0	-1.3	·	0.3
O=C(CSc1nnc(-c2c[nH]c3ccccc23)o1)c1ccccc1	-1	2.7	0.75	2.5	1.7	-6%	-1.6
CN(C)S(=O)(=O)Oc1ccccc1C(=O)Nc1ccc(F)cc1F	13	-0.1	0.72	0.1	-1.3	-12%	0.1
CCOC(=O)N1CCN(C(=O)COC(=O)c2cccc(S(C)(=O)=O)c2)CC1	-3	·	0.71	-0.6	-0.8	3%	·
Cc1c(NC(=O)/C(=C\c2ccccc2)NC(=O)c2ccccc2)c(=O)n(-c2ccccc2)n1C	-1	-3.9	0.71	0.7	0.0	13%	0.5
CN(C(=O)CCNC(=O)N1CC(=O)Nc2ccccc21)C1CCCCC1	5	-7.5	0.67	0.4	-2.6	0%	-0.6
CN(C)c1nc(N)nc(CSc2nnnn2-c2ccccc2)n1	-9	-1.6	0.75	3.3	-1.4	1%	0.3
O=C(COC(=O)C1CCN(S(=O)(=O)c2ccc3c(c2)OCCO3)CC1)Nc1ccccc1OC(F)F	-3	-0.6	0.73	1.1	-4.8	·	2.9
O=C(NC(=S)NC1CCSC1=O)c1cccs1 (stereo not drawn)	-6	0.6	0.65	0.6	1.1	7%	-0.8
Cc1ccc(-c2cc(C(F)(F)F)n3ncc(C(=O)N4CCN(C)CC4)c3n2)cc1	-4	2.7	0.67	-4.7	-3.4	3%	0.3
SMILES	Beta2AR agonist	LANA-H2B inh	Ecoli growth	UCH37 inh	HNF4A DNA FP	Vif TR-FRET	A1 inh
CN(C)c1ccc(/C=N/Nc2cc(N3CCOCC3)nc(N3CCOCC3)n2)cc1	4	1.1	·	·	4.5	·	0.4
CC(C)(C)N(NC(=O)Nc1ccccc1)C(=O)c1ccccc1Cl	5	-9.6	0.72	-3.4	1.0	0%	0.1
Cc1ccc(-c2nc3ccccc3o2)cc1NC(=O)c1ccc2c(c1)OCO2	-1	4.0	0.69	-13	3.0	2%	-1.0
CCc1ccc(CN(C)C(=O)C2CCC(=O)N(CCCN3CCCC3=O)C2)cc1 (stereo not drawn)	-4	-1.9	0.66	4.3	-2.5	-5%	-0.9
COc1cccc(C(=O)N2CCN(C(=O)c3ccc(-c4ccccc4)cc3)CC2)c1OC	-3	-2.1	0.7	4.7	-7.7	4%	0.3
Cc1cc(Nc2ccccc2)n(CCOC(=O)COc2ccccc2)n1	6	-3.1	0.68	1.9	0.1	4%	0.2
CCCCn1c(N)c(N(CCOC)C(=O)c2cc(-c3ccccc3Cl)nc3ccccc23)c(=O)[nH]c1=O	-3	·	0.64	-1.4	-2.5	4%	0.2
COc1ccc(CCNCC(=O)Nc2ccc(OC(F)F)cc2)cc1	-3	0.1	0.67	5.3	-0.6	·	0.1
CC(=O)CC(C)(C)S(=O)(=O)c1ccc(Oc2ccc(S(=O)(=O)C(C)(C)CC(C)=O)cc2)cc1	0	4.3	0.76	-3.2	0.3	21%	0.1
Cc1cccc(C)c1NC(=O)N1CCC(C(=O)c2ccc(F)cc2)CC1	7	-1.9	0.68	1.5	3.1	·	0.3
CC(C)C(=O)Nc1ccc2c(c1)C(=O)N(CCC(=O)O)C2=O	43*	2.3	0.69	-93	-1.1	6%	0.7
COc1cccc2c(=O)c(C/C=C(/C)Cl)c(C)[nH]c12	-5	-23	0.73	-20	1.6	24%	-0.5
O=C(NNC(=O)c1ccc(Cl)c(Cl)c1)c1cccnc1	-7	-8.9	0.7	8.9	-0.1	-10%	-0.4
O=C(NCc1ccco1)C(=O)NCC1OCCN1S(=O)(=O)c1cc(F)ccc1F (stereo not drawn)	-4	0.5	0.67	2.2	2.1	26%	-0.3
COCCN=C1OC(=O)N2C(=O)C3=C4[C@@H](C[C@H]5C(=O)N(c6ccccc6)C(=O)[C@H]5[C@H]4[C@@]12Cc1ccccc1)[C@H]1C(=O)N(c2ccccc2)C(=O)[C@H]1[C@H]3C	14	-2.7	·	2.9	-4.4	8%	0.4
Cc1ccc(OCCOCCn2cnc3ccccc3c2=O)c([N+](=O)[O-])c1	4	3.9	0.68	1.7	0.4	1%	-0.4
CC(C(=O)N1CCN(Cc2ccccc2)CC1)n1ncn2cccc2c1=O (stereo not drawn)	-2	-6.2	0.69	5.6	-0.5	·	·
CCOC(=O)C(C)Sc1nc(=O)n2ccccc2n1 (stereo not drawn)	4	-4.2	0.67	-0.1	4.1	9%	0.9
CCN(CC(=O)Nc1c(F)cccc1F)C(=O)c1cccc(-n2cnnn2)c1	-3	·	0.71	2.7	2.9	-4%	·
CCCCc1nc(SCC(=O)N2CCCCC2)c2c(=O)n(C)c(=O)n(C)c2n1	5	-2.9	0.71	0.8	-2.6	-9%	-0.7

Source: PubChem (several laboratories)
